# Bioassay records (PubChem BioAssay)
# MARV entry inh: Marburg virus entry inhibition; Marburg virus pseudotyped entry inhibition, cell reporter; control for the full effect not named in the record; about a third of the inactives were read at about 46 µM; Potency, µM (highest dose often 37.8 µM), for the others: at the highest dose activity change, negative = inhibition, actives largely listed as inhibitors; 300,000 tested, 1.8% active; AID 540276; active = well fitted inhibition curve with a large enough effect; inconclusive = small, poorly fitted or top-dose-only effect, or effect the other way; inactive = flat fitted curve, though single readings scatter; tested in HEK293 cells; about a fifth of its hits are not listed in these tables; also: % is scaled to controls: 0 for no effect and ±100 for the full control effect; luciferase read-out
# Cruzain inh Det: blocks cruzain activity in presence of Triton detergent; Potency, µM, for inactives: max response, negative = inhibition, hits mostly inhibitors; AID 1478; 200,000 tested, 0.43% active; purified cruzain, Z-FR-AMC fluorescence, 0.01% Triton; P25779; active = well fitted curve in the direction sought with a large enough effect; inconclusive = small, poorly fitted or top-dose-only effect, or another doubt; inactive = no such curve, though single readings can be large; an effect the other way counts as inactive or inconclusive;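 also: plate controls were neutral wells for no effect and buffer without enzyme for full effect; nearly all actives have a fitted effect of over 40% in size; top concentration of the series not given in the record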
# Target sequence (P25779 123-467 limits assumed): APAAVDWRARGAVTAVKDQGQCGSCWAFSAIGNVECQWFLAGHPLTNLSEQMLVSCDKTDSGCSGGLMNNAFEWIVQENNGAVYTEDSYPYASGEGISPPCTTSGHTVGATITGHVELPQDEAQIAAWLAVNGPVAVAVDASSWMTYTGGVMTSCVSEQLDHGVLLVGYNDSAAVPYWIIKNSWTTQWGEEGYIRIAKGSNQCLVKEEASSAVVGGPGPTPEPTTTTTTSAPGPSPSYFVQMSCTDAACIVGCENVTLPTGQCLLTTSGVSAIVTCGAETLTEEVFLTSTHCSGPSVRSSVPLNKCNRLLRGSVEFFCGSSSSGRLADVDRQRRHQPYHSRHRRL
#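 Detergent-containing arm of a paired screen for aggregation-based inhibition: 0.01% Triton X-100 present. Cruzain at 1.5 nM cleaved 2 uM Z-FR-AMC at pH 5.5 with 5 mM DTT; AMC fluorescence gain over 60 s measured activity.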
# Cruzain noTriton: inhibitors of Trypanosoma cruzi cruzain without detergent | purified cruzain, Z-FR-AMC fluorescence, no detergent | 200,000 tested, 2.3% active | P25779 | Potency, µM, inactives show max response, negative = inhibition, hits mostly inhibitors; active = well fitted curve in the direction sought with a large enough effect; inconclusive = small, poorly fitted or top-dose-only effect, or another doubt; inactive = no such curve, though single readings can be large; an effect the other way counts as inactive or inconclusive;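 also: plate controls were enzyme without inhibitor for no effect and buffer without enzyme for full effect; nearly all actives have a fitted effect of over 40% in size; top concentration of the series not given in the record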
#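 Purified cruzain at 1.5 nM, pre-incubated 15 min with compound at room temperature in 100 mM sodium acetate pH 5.5, 5 mM DTT, 0.00005% Triton X-100. Reaction started with 2 uM Z-FR-AMC; AMC fluorescence increase over 60 s gives rate.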
# NS1 inh: blocks influenza NS1 protein function | S. cerevisiae slowed by influenza A NS1, growth recovery by OD600 | Potency, µM (highest dose often 46.1 µM), inactives show top-dose activity, positive = more growth | 270,000 tested, 0.4% active; also: actives are rising curves; nearly all actives have a fitted effect of over 50% in size
#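 Growth recovery, yeast-based: influenza A NS1 expressed in S. cerevisiae causes slow growth, and suppressors are detected by OD600. The parent strain without NS1 is used as positive control.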
# SARS PLP yeast: SARS-CoV PLP inhibition in yeast | 330,000 tested, 0.19% active | S. cerevisiae expressing SARS-CoV PLpro, growth rescue; control for the full effect not named in the record | Potency, µM (top dose mostly 32.9 µM), inactives show top-dose activity, positive = growth rescue; also: 0% is about no effect; nearly all actives have a fitted effect of over 55% in size; growth read by luminescence after 48 h
# Lassa entry inh: inhibitors of Lassa virus binding or cell entry; Lassa virus pseudotype entry inhibition, cell reporter; control for the full effect not named in the record; Potency, µM (top dose mostly 37.9 µM), without a hit: at the top dose activity change, negative = inhibition, usual class: inhibitors; 300,000 tested, 1.2% active; AID 540256; active means well fitted inhibition curve with a large enough effect; inconclusive means small, poorly fitted or top-dose-only effect, or effect the other way; inactive means flat fitted curve, though single readings scatter; tested in HEK293 cells; also: % is scaled to controls: 0 for no effect and ±100 for the full control effect; nearly all actives have a fitted effect of over 50% in size; luciferase read-out
# StopGo reporter: lowers the luciferase signal of an FMDV 2A StopGo reporter; 410,000 tested, 1.2% active; AID 1159524; Potency, µM (series often up to 57.9 µM), for inactives: at the top dose signal change, negative = less light; human cells with a luciferase reporter of 2A StopGo recoding; control for the full effect not named in the record; active = well fitted falling curve with a large enough effect; inconclusive = small, poorly fitted or top-dose-only effect; inactive = no such curve, though single readings can be large or run the other way; tested in HEK293T cells; also: % is scaled to controls: 0 for no effect and ±100 for the full control effect; nearly all actives have a fitted effect of over 45% in size; luciferase light after 4 h
# RE007 growth inh: less growth of the S. pombe RE007 Vpr strain | S. pombe RE007 Vpr strain, BacTiter-Glo ATP luminescence, 24 h; control for the full effect not named in the record | Potency, µM (highest dose often 92.2 µM), inactives show at the top dose activity change, negative = less growth | 360,000 tested, 0.21% active | AID 651644; active = well fitted falling curve with a large enough effect; inconclusive = small, poorly fitted or top-dose-only effect; inactive = no such curve, though single readings can be large or run the other way;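 also: % is scaled to controls: 0 for no effect and ±100 for the full control effect; nearly all actives have a fitted effect of over 50% in size; the assay follows cell death caused by Vpr and the record does not say whether a fall means rescue or toxicity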
#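 Fission yeast RE007 carrying one integrated HIV-1 vpr copy, seeded at OD 0.01 in PMG+AL medium with 23 nL pinned compound. Grown 24 h at 30 degrees; viability read by BacTiter-Glo luminescence after 5 min.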
# An asterisk follows results filed as active; ? = inconclusive; / = no result given; & = joins results of further samples; [ ] = another dose, or the depositor's remark. Unless noted, calls follow the shape of the dose curve; as a rule, active means well fitted rising curve with a large enough effect; inconclusive means small, poorly fitted or top-dose-only effect; inactive means no such curve, though single readings can be large or run the other way. Potency is read from the fitted curve at half-maximal effect.
1. CCN1CCN(C(CNS(=O)(=O)c2ccc(C)cc2)c2cccnc2)CC1 (stereo not given)
2. C=C(C)[C@@H]1CCC2(C(=O)O)CC[C@]3(C)[C@H](CC[C@@H]4[C@@]5(C)CCC(=O)C(C)(C)[C@@H]5CC[C@]43C)[C@@H]12 (stereo not given in full)
3. O=C(O)c1cc(-c2ccc(/C=C3\NC(=O)N(c4ccccc4)C3=O)o2)ccc1Cl
4. O=C(CNCCO)Nc1ccc(F)c(Cl)c1
5. CCOC(=O)c1c(C)[nH]c(C(=O)N2CCCC(C(=O)c3ccccc3OC)C2)c1C (stereo not given)
6. CCOC(=O)C(C)CC(C)C(=O)N1CCOCCN(C(=O)C(C)CC(C)C(=O)OCC)CCOCC1 (stereo not given)
7. COc1cccc(NC(C)(C)c2nnnn2-c2c(C)cccc2C)c1
8. CCOC(=O)c1ccc(NC(=O)CSc2nnc(CCc3ccc(C)o3)n2-c2ccccc2)cc1
9. C=CCn1c(N)c(C(=O)OC(C)(C)C)c2nc3ccccc3nc21
10. Cc1ccccc1Nc1nnc(SCC(=O)NC2CCCc3ccccc32)s1 (stereo not given)

Screen / compound no.	1	2	3	4	5	6	7	8	9	10
MARV entry inh	16%	-18%	/	0%[46.1 µM]	-26%[46.1 µM]	?	-3%[14.2 µM]	-28%	-19%&4%	?
Cruzain inh Det	/	2.2%	/	/	/	3.7%	/	-1.7%	-11%	-1.2%
Cruzain noTriton	/	5µM*	/	/	/	?	/	29%	8%	?
NS1 inh	-1%	8%	2%	/	-1%	-2%	-1%	1.4µM*	-54%	7%
SARS PLP yeast	?	-3%	1%	3%	0%	2%	1%	16%	-10%	10%
Lassa entry inh	7%	-9%	/	-4%	-3%	-2%	-14%	-9%	-9%	-11%
StopGo reporter	-19%	?	6%	10%	31%[activator]	0%	-17%	-14%	-16%	10%
RE007 growth inh	6%	0%	1%	-3%	-22%	3%	-1%	4%	-13%	-11%

# Four compounds out of the list, sorted by heavy-atom count, low to high:
4. O=C(CNCCO)Nc1ccc(F)c(Cl)c1
10. Cc1ccccc1Nc1nnc(SCC(=O)NC2CCCc3ccccc32)s1 (stereo not given)
2. C=C(C)[C@@H]1CCC2(C(=O)O)CC[C@]3(C)[C@H](CC[C@@H]4[C@@]5(C)CCC(=O)C(C)(C)[C@@H]5CC[C@]43C)[C@@H]12 (stereo not given in full)
6. CCOC(=O)C(C)CC(C)C(=O)N1CCOCCN(C(=O)C(C)CC(C)C(=O)OCC)CCOCC1 (stereo not given)

Screen / compound no.	4	10	2	6
MARV entry inh	0%[46.1 µM]	?	-18%	?
Cruzain inh Det	/	-1.2%	2.2%	3.7%
Cruzain noTriton	/	?	5µM*	?
NS1 inh	/	7%	8%	-2%
SARS PLP yeast	3%	10%	-3%	2%
Lassa entry inh	-4%	-11%	-9%	-2%
StopGo reporter	10%	10%	?	0%
RE007 growth inh	-3%	-11%	0%	3%

# Next section
11. Cc1ccc(C)n1-n1cnc2sc3c(c2c1=O)CCCCC3
12. COc1ccc(CNC(=O)C2CCN(c3nc(OC)nc(OC)n3)CC2)cc1
13. O=C(O)CN(CCN(CC(=O)O)CC(=O)O)CCN(CC(=O)O)CC(=O)O
14. CC(=O)Nc1ccc(NC(=O)COc2ccccc2C(=O)Nc2cccc(Cl)c2Cl)cc1
15. O=C(CNC(=O)Cc1ccccc1)NCC(=O)OCC(=O)c1ccccc1Cl
16. CC(C)(C)C(=O)Nc1nc2ccc(S(C)(=O)=O)cc2s1
17. O=C(Cn1cnc2c(nnn2-c2ccc(F)cc2)c1=O)NCc1ccco1
18. Cc1ccc(Nc2nc(Cl)nc(N(C)C#N)n2)cc1
19. CC(C)c1nnc(NC(=O)CCC(=O)N2CCC(Cc3ccccc3)CC2)s1
20. N#C/C(=C(/O)c1ccccc1F)c1nc2cc(C(F)(F)F)ccc2s1

Screen / compound no.	11	12	13	14	15	16	17	18	19	20
MARV entry inh	?	?	-29%&-29%&-29%&-15%&-29%&-29%&-29%&-29%	10%	11%	3%[46.1 µM]	3%	?	1%[46.1 µM]	-21%
Cruzain inh Det	-1.4%	-1.4%	12%&14%	-1.4%	-0.4%	/	-2.1%	-1.9%	/	/
Cruzain noTriton	0%	-6%	14%&8%	8%	-5%	/	-13%	-13%	/	/
NS1 inh	-1%	?	-35%	4%	5%	/	6%	-20%	-15%	2%
SARS PLP yeast	-8%	-2%	/	9%	-2%	0%	-5%	-6%	-3%	-1%
Lassa entry inh	2%	-2%	2%	-17%	-17%	0%	-17%	-27%	-18%[46.1 µM]	-27%
StopGo reporter	-22%	/	/	?	-13%	40%[activator]	-6%	-23%	-12%	30%
RE007 growth inh	-6%	-6%	/	-12%	-7%	-9%	-14%	?	-5%	-2%

21. CCC(=O)c1ccc(N2CCN(C(=O)c3ccc(Br)cc3)CC2)c(F)c1
22. O=C(c1cccnc1)N1CCN(Cc2ccccc2Br)CC1
23. O=C1/C(=C\c2ccc(O)cc2)SC(=S)N1/N=C/c1ccc(O)cc1
24. NS(=O)(=O)c1ccc(NN=C2CCN(Cc3ccccc3)CC2)c([N+](=O)[O-])c1
25. CC(C)(C)c1ccc(C(=O)NCC(=O)OCc2ccc([N+](=O)[O-])cc2)cc1
26. Cc1cccn2c(CN(C)CC3Cc4ccccc4O3)c(C(=O)N3CCCCC3)nc12 (stereo not given)
27. Cc1cccn2c(=O)c3cc(C#N)c(=N)n(CCCN4CCOCC4)c3nc12
28. COc1cc(C2CC(=O)Nc3c2c(C)nn3-c2nncc(-c3ccc(C)cc3)n2)cc(OC)c1OC (stereo not given)
29. Cc1nnsc1SCCNC(=O)c1ccc(F)cc1
30. Cc1ccc(S(=O)(=O)[N-]c2nc3ccccc3nc2-n2cc[n+](CCC(C)C)c2)cc1

Screen / compound no.	21	22	23	24	25	26	27	28	29	30
MARV entry inh	-10%	-20%	/	10%	17%	?	-28%	16%[46.1 µM]	17%	-10%
Cruzain inh Det	-1.3%	-1.1%	/	/	-5.1%	/	/	-4.0%	1.5%	2.7%
Cruzain noTriton	-1%	0%	/	/	16%	/	/	-3%	8%	?
NS1 inh	-12%	1%	1%	6%	5%	0%	/	/	-7%	-3%
SARS PLP yeast	28%	6%	-1%	-1%	13%	-1%	/	/	-3%	6%
Lassa entry inh	-29%	-3%	/	?	-7%	22%[46.1 µM]	?	4%[46.1 µM]	5%	-29%
StopGo reporter	/	-12%	7%	-1%	-8%	-24%	-21%	-27%	1%	/
RE007 growth inh	6%	15%	-13%	2%	0%	-4%	-26%	/	1%	-16%

31. CC(=O)Nc1cccc(Nc2nc3ccccc3n3c(C)nnc23)c1
32. CCOc1ccccc1N1CCN(C(=O)c2cc(-c3cc(OC)ccc3OC)nc3ccccc23)CC1
33. O=C(COc1ccc(F)cc1)Nc1nnc(S(=O)(=O)N2CCc3ccccc32)s1
34. O=C(Nc1ccc2c(c1)nc1n2CCOC1)c1ccco1
35. Cc1nc(-c2ccccc2)sc1C(=O)Nc1ccccc1F
36. O=S(=O)(Nc1nc2ccccc2nc1Cl)c1cccc(C(F)(F)F)c1
37. O=C(CCCSc1nc2ccccc2[nH]1)NCc1ccccc1
38. Cc1cc(C(=O)N2CCCC(N3CCN(c4ccc(F)cc4)CC3)C2)c(C)o1 (stereo not given)
39. COc1ccc(C(CNC(=O)C(C)c2ccc3cc(OC)ccc3c2)N(C)C)cc1 (stereo not given)
40. O=C(O)CSCCc1ccccn1

Screen / compound no.	31	32	33	34	35	36	37	38	39	40
MARV entry inh	/	?	/	7%	-26%	-9%[46.1 µM]	10%	/	?	?
Cruzain inh Det	-7.7%	/	-1.0%	1.6%	/	/	-3.6%	/	/	0.7%
Cruzain noTriton	3%	/	-8%	-2%	/	/	-3%	/	/	3%
NS1 inh	/	12%	/	4%	-13%	-35%	-1%	-10%	-3%	7%
SARS PLP yeast	/	?	/	-3%	-2%	11%	-24%	-1%	-2%	-4%
Lassa entry inh	12%[46.1 µM]	?	17%[46.1 µM]	14%	-13%	-26%	?	/	?	11%
StopGo reporter	-12%	-22%	-17%	13%	23%	-12%	-10%	?	18%	-13%
RE007 growth inh	/	-10%	/	-5%	19%	5%	4%	-24%	-13%	8%

41. COCCn1c(=O)[nH]c(=O)c2c1nc(-c1cc(Br)c3c(c1)OCO3)n2Cc1ccccc1
42. CCC1C(=O)NCCN1C(=O)c1ccc2nc(Cc3cccc(Cl)c3)oc2c1 (stereo not given)
43. Cc1ccc(NC(=O)Nc2ccc(F)cc2)nc1
44. COc1ccc(OCC(=O)Nc2ccc(N3CCOCC3)c(Cl)c2)cc1
45. O=C(C(Br)=Cc1ccccc1)c1ccccc1
46. Cc1nc(SCC(=O)NC2CC2)c2c(C)c(C)sc2n1
47. O=C(/C=C/c1cccc([N+](=O)[O-])c1)N1CCN(Cc2ccccc2)CC1
48. CN1/C(=C/C(=O)c2cccs2)Sc2ccccc21
49. CC(=O)Nc1ccc(N=Nc2ccc(O)cc2)cc1
50. O=C(COC(=O)c1c2c(nc3ccccc13)CCCC2)Nc1ccc2c(c1)OCO2
51. CCCCCCc1cc2cc(-c3nnc(-c4ccc(C)cc4)o3)c(=O)oc2cc1O

Screen / compound no.	41	42	43	44	45	46	47	48	49	50	51
MARV entry inh	?	1%	22%[46.1 µM]	-2%	5µM*	-3%[46.1 µM]	/	-9%	?	?	/
Cruzain inh Det	/	/	2.4%	-4.9%	/	/	/	-3.3%	-4.2%	-6.2%	3.0%
Cruzain noTriton	/	/	-10%	-5%	/	/	/	-9%	2%	25µM*	-1%
NS1 inh	/	-6%	-3%	-13%	/	-3%	28%	-170%	-5%	-46%	/
SARS PLP yeast	0%	0%	5%	-7%	/	15%	0%	-21%	-27%	-13%	/
Lassa entry inh	?	?	?	-9%	?	-13%	/	/	?	?	-7%[46.1 µM]
StopGo reporter	-5%	?	47%[activator]	?	25µM*	-23%	-5%	/	21%	-21%	-15%
RE007 growth inh	9%	-3%	-8%	-10%	?	-7%	0%	/	1%	9%	/
